Screening data (PubChem BioAssay)
GIV Gai3 FP = GIV-Galpha-i interaction inhibition. P08753. 210,000 tested, 0.42% active. Galpha-i3/FITC-GIV peptide fluorescence polarization, 90 min; stronger effect = lower value; scaled: aluminum fluoride 0%, vehicle 100%. percent of control (FP), % (no concentration beside the values);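 active = replicate mean at 85% of control or lower, very high polarization wells dropped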;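 also: wells of about 15 µL received 100 nL stock; the first replicate is given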
Target sequence (P08753 whole entry, looked up): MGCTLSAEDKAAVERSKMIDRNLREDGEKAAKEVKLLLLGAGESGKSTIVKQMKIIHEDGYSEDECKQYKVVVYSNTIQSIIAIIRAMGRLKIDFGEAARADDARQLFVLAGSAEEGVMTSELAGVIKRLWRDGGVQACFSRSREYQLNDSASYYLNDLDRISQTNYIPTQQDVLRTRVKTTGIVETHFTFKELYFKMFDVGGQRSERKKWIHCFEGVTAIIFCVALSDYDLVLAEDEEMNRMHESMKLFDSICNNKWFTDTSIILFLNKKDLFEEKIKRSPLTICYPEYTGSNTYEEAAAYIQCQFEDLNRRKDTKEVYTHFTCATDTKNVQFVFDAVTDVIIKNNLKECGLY
HCMV NEC inh = inhibitors of HCMV UL50-UL53 nuclear egress complex interaction | 190,000 tested, 0.15% active | AID 1918969 | inhibition, % (concentration not given with the values) | HTRF UL50-UL53 interaction, normalized percent inhibition;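 active = both replicates at 50% or more, plus weaker picks with an unusually low signal ratio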;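 also: stock transfer was 100 nL into about 20 µL; 0% = negative control wells and 100% = wells with untagged competitor protein; inactives centre near -12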
Sa growth 42C = blocks Staphylococcus aureus growth | S. aureus RN4220 growth, OD600, 20 h, 42 °C; stronger effect = lower value | AID 720641 | 170,000 tested, 0.53% active | relative growth, % (concentration not given with the values);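 active = growth at 42 °C up to 50% and 20 or more points under that at 30 °C, or under 10% at both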;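 also: 300 nL library stock went into each well; scaled to the means of positive and negative controls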
Sa growth 42C second temp = also measured in Sa growth 42C; calls as there; relative growth, %; measured here: growth at 30 °C;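 optical density after 20 h as mean of two plates; 100% = untreated growth and lower means inhibition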
* marks the source's active call; other numbers are inactive results; nt = no result given; & = joins results of further samples.

SMILES	GIV Gai3 FP	HCMV NEC inh	Sa growth 42C	Sa growth 42C second temp
CCn1c(SC)nnc1C1CCCN(S(=O)(=O)c2ccc3c(c2)OCCO3)C1 (stereo unspecified)	100	-6	115	84
CCC1CCCCN1C(=O)CSc1cccc[n+]1[O-] (stereo unspecified)	nt	-13	84	88
COc1ccc(C2=CSC3=C(C(=O)c4cccc(S(=O)(=O)N5CCOCC5)c4)CCN23)cc1	nt	-95	82	61
COc1c(NC(=O)N2CC(C)OC(C)C2)csc1Cl (stereo unspecified)	103	-31	104	86
Cc1ccc(S(=O)(=O)Nc2cccc(-c3ccc(N4CCCCC4)nn3)c2)s1	103	nt	102	89
Cn1c(=O)cc(OCC(=O)Nc2ccc(F)cc2F)c2ccccc21	97	-15	85	92
COC(=O)Cn1cc(/C=C2/C(=O)NC(=O)N(c3ccc(Br)c(C)c3)C2=O)c2ccccc21	114	-3	nt	nt
COc1cccc(OCc2cc(C3Nc4ccccc4C(=O)N3c3cccc4ccccc34)ccc2OC)c1 (stereo unspecified)	100	6	nt	nt
COC(=O)c1cc2occc2n1Cc1cn2ccccc2n1	102	-6	94	76
Cc1noc(/C=C/c2ccco2)c1S(=O)(=O)N1CCC(C(=O)Nc2ccc(F)c(Cl)c2)CC1	113	-3	99	82
COc1ccc(NCc2nc3nc(C)c(C)c(=O)n3[nH]2)c(OC)c1	103	-37	nt	nt
Cc1ccc(Cn2c(=O)c(N3CCCC(C(=O)NCc4cccc(Cl)c4)C3)nc3ccccc32)cc1 (stereo unspecified)	104	-16	nt	nt
CCOC(=O)c1c(-c2ccccc2)csc1/N=C\c1nc(-c2ccccc2)oc1O	113	24	nt	nt
CCN(Cc1ccccc1)S(=O)(=O)c1cc(Br)cc2c1N(C(=O)C1CC1)CC2	98	-16	90	85
Cc1ccc(SC(=O)N2CCOCC2)cc1	103	3	95	110
Cc1ccc(S(=O)(=O)n2nc(C)c(Sc3nccn3C)c2C)cc1	97	1	102	73
CCOC(=O)c1c(/N=C/N(C)C)sc(C(=O)OC)c1C	nt	-21	84	79
Cc1ccc(Nc2nc(CSc3nnnn3C3CC3)cs2)cc1	nt	-11	108	82
CCCC1CCC(=NN=C(N)N)CC1 (stereo unspecified)	nt	-4	65	82
COC(=O)c1ccccc1NC(=O)NCCCn1c(-c2ccncc2)nc2cccnc21	105	-2	nt	nt
O=C(Nc1cccc2ccccc12)c1cnn2c1NC(c1ccccc1)CC2C(F)(F)F (stereo unspecified)	nt	-8	85	84
CCc1ccc(NC(=O)CCS(=O)(=O)c2ccc3c(c2)CC(=O)N3C)cc1	99	-4	97	83
CCCOc1ccc(Oc2nc(C)nc3sc(C)c(C)c23)cc1	101	-29	nt	nt
O=C(CCC1N=C2c3ccccc3N=C(SCc3ccc(Cl)cc3)N2C1=O)NC1CCCCC1 (stereo unspecified)	101	-2	89	89
CC(C)CC(=O)Nc1ccccc1NC(=O)CC(C)C	101	0	101	102
CC(=O)N(c1ccc(C)c(C)c1)C1C=CS(=O)(=O)C1 (stereo unspecified)	99&95	-14	98	94
CC(C)CCNC(=O)c1ccc2c(=O)n3c(nc2c1)CCCCC3	103	nt	113	81
Cn1c(=O)oc2cc(S(=O)(=O)N3CCC(C(=O)N4CCN(c5ccc(Cl)cc5)CC4)CC3)ccc21	107	-31	91	49
CCc1ccccc1NC(=O)c1cc(S(=O)(=O)NC2CCCC2)ccc1F	101	nt	137	90
Cc1c(Cl)cccc1NC(=O)c1cccc(NC(=O)N2CCSc3ncccc32)c1	103	nt	89	89
N#Cc1sccc1CSc1ccc(Cl)cc1	102	0	96	106
N#C/C(=C\Nc1cccc(Cl)c1)c1nc2ccccc2[nH]1	125	20	116	96
COc1ccc2c(CN(C)CC(=O)Nc3ccc(N4CCOCC4)cc3)cc(=O)oc2c1	nt	-11	100	95
Nn1c(SC2CCOC2=O)nnc1-c1cccnc1 (stereo unspecified)	nt	9	114	93
CN(C)CCCN1c2ccccc2CCc2ccc(Cl)cc21	95&104	-39&-11&-12&-21&-5&-16	93	66
C=CCOC(=O)C1=C(C)NC(S)=C(C#N)C1c1cccs1 (stereo unspecified)	105	-38	nt	nt
CCC(=O)c1ccc(OCC(=O)N2CCN(S(=O)(=O)c3cccc(C(F)(F)F)c3)CC2)cc1	nt	-32	83	95
CC1CCC(n2cccc2)CC1 (stereo unspecified)	nt	-15	115	89
COc1ccc(Nc2ncc(C(=O)Nc3cc(Cl)c(OC)cc3OC)c3ccccc23)cc1	100	7	101	93
O=C(N/C(=C\c1ccc2c(c1)OCO2)C(=O)N1CCOCC1)c1ccccc1Cl	105	nt	106	92
COc1ccc(NC(=O)c2ccccc2N(C)S(C)(=O)=O)cc1	99	-11	104	92
Cc1ccc(C(=O)CSc2nnc(-c3ccc4c(=O)n5c(nc4c3)CCCCC5)o2)s1	nt	-10	78	81
COC(=O)CSc1cc(C(=O)c2nccn2C)c2ccccc2n1	nt	-48	99	90
Cc1cccc(C(=O)NCC(c2ccco2)S(=O)(=O)c2cccs2)c1 (stereo unspecified)	96	nt	111	85
CCC(=O)N1CCc2cc(CNC(=O)Nc3cc(Cl)ccc3C(=O)OC)ccc21	103	nt	94	93
CC(C)NC(=O)N1CCCC(c2cccc(C(=O)NCc3ccc(F)cc3)c2)C1 (stereo unspecified)	104	-9	nt	nt
O=C(Cc1ccccc1)Nc1ccc2c(c1)OCO2	nt	10	85	92
Cc1ccc(OCC(=O)Nc2cc(-c3nn(C)c(=O)c4ccccc34)ccc2N2CCOCC2)cc1	101	nt	109	96
O=C(O)CCN1C(=O)S/C(=C\c2cccs2)C1=O	nt	-117	97	84
COc1cccc(CNC(=O)Cc2ccc(NC(=O)N3CCSc4ncccc43)cc2)c1OC	102	nt	92	85
CC(c1ccccc1)N1C(=O)OC(C)(C)C1(C)O (stereo unspecified)	103	-7	102	86
CCOC(=O)c1ccc(-c2ccc(-c3nc4ccc(S(N)(=O)=O)cc4[nH]3)o2)cc1	nt	-30	104	96
Cc1ccc(NC(=O)c2sc3ncn(Cc4cccc(F)c4)c(=O)c3c2C)c(Br)c1	105	nt	111	86
CCOc1cc(C=C2C(=O)NC(=O)NC2=O)cc(Br)c1OCCOc1ccccc1	108	-15	nt	nt
CCC(=O)Nc1nc2cc(NC(=O)c3cc(-c4ccccc4)nc4ccccc34)ccc2s1	110	-6	nt	nt
Cn1c(-c2ccccc2)c(C(=O)COC(=O)[C@@H]2CCCN2C(=O)c2cccs2)c2ccccc21	nt	-5	103	99
Cc1ccc(S(=O)(=O)N2CCc3cc(C(=O)Nc4ccc(C)c(C)c4)ccc32)cc1	101	-40	92	92
N#Cc1ccc(OCC(=O)OCC(N)=O)cc1	nt	-10	92	94
c1ccc(OCc2nnc3sc(-c4c[nH]c5ccccc45)nn23)cc1	102	1	nt	nt
COc1cc(OC)c(C(=O)N2CCN(c3ccccc3F)CC2)cc1OC	nt	-8	100	79
Continued.
SMILES	GIV Gai3 FP	HCMV NEC inh	Sa growth 42C	Sa growth 42C second temp
CSCCC(C(=O)O)N1C(=O)/C(=C/c2ccc(Cl)cc2Cl)SC1=S (stereo unspecified)	105	-11	nt	nt
COc1ccc(S(=O)(=O)c2ccc(C(=O)O)cn2)cc1	98	-24	nt	nt
C=CCN1CCN(C(=O)c2cc(OC)c(OC)cc2OC)CC1	99	-29	107	102
N#CCOC(=O)c1cccc(I)c1	nt	-14	86	98
C#CCNc1c2c(nc3nnnn13)CCCC2	105	-5	100	94
CCCCN1COc2ccc(CCNC(=O)c3ccc(Cl)cc3)cc2C1	nt	-13	108	65
Cc1ccc(-c2nc3ncccc3o2)cc1NC(=O)C(C)(C)Oc1ccc(Cl)cc1	111	-13	78	58
COc1ccc(C(F)(F)F)cc1NC(C)=O	102	-26	96	103
CCOc1ccc(Nc2ncnc3c2nc2n3CCCC2)cc1	111	nt	99	94
CCOC(=O)C1=C(C)NC2=C(C(=O)c3ccccc32)C1c1cccnc1 (stereo unspecified)	107	-59	115	97
COc1ccccc1OCC(=O)Nc1oc(-c2ccccc2)c(-c2ccccc2)c1C#N	104	-9	98	96
CC(=O)N(Cc1ccc(C(C)C)cc1)c1ccc2oc(-c3ccccc3)nc2c1	101	nt	90	94
Cc1ccc(Nc2nc(C(=O)N3CCCCC3)cs2)cc1	nt	7	217	103
N#Cc1c(N)nc2c(c1N)CC(=O)N2c1ccccc1	nt	-29	93	91
CCCNC(=O)C(Sc1ccccc1)c1ccccc1 (stereo unspecified)	97	-11	97	77
CC1(C)Cc2nc3[nH]c(=O)n(-c4ccccc4)c(=O)c3cc2CO1	105	-31	nt	nt
CC(C)OC(=O)C(N)c1ccccc1 (stereo unspecified)	105	-8	95	86
Cn1c(=O)cc(OCCCC(=O)N2CCC(Cc3ccccc3)CC2)c2ccccc21	104	-6	nt	nt
CN(CC(=O)Nc1c(Cl)cccc1Cl)CC(=O)N1CCc2ccccc21	nt	-24	76	91
COC(Cn1c(-c2ccc(Cl)cc2)n[nH]c1=S)OC	102	-8	110	100
NS(=O)(=O)c1ccc(CCNC(=O)c2ccc(/C=N/O)cc2)cc1	nt	-34	100	92
COc1ccc(CC2CCc3ncc(C)cc3C2)cc1 (stereo unspecified)	104	-19	76	73
Cc1cc(N2CCCN(C)CC2)nc2cc(Cl)ccc12	102	-20	104	89
COc1ccccc1-n1c(CNC(=O)c2ccccc2)n[nH]c1=S	101	-19	82	71
CC(C)CNc1oc(COc2ccccc2F)nc1C#N	108	12	106	94
CCC(C)COc1ccc(O)cc1 (stereo unspecified)	106	-6	nt	nt
Cc1ccc(NC(=O)CCS(=O)(=O)c2ccc3nc(C)sc3c2)c(C)c1	109	nt	104	89
Cc1csc2ncnc(Sc3ccc(Cl)cc3)c12	101	-25	97	92
COc1ccccc1CNC(=O)Cn1ncc2c3ccccc3n(Cc3ccccc3C)c2c1=O	103	-5	114	93
Cc1ccc(CCNC(=O)C2CC(=O)N(CCc3ccccc3)C2)cc1 (stereo unspecified)	98	nt	115	87
COc1ccc(CN(C)S(=O)(=O)c2cn(C)c(=O)n(C)c2=O)cc1OC	nt	-33	86	82
CC(=O)N(C(C)=O)c1ccccc1-c1ccccc1	105	-28	96	73
CCC1CCCCN1C(=O)COC(=O)c1cncc(Br)c1 (stereo unspecified)	nt	-18	105	87
Cc1oc(-c2ccccc2Cl)nc1CSCC(=O)NC1CCCC1	105	nt	89	84
O=C(c1nc(Cn2cnc3ccccc3c2=O)no1)N1CCN(Cc2ccc3c(c2)OCO3)CC1	102	-20	nt	nt
COc1cccc(NC(=O)N2CCC(C(=O)O)CC2)c1	99	-19	79	81
O=C(NCc1ccc(Cl)cc1)c1cnc(N2CCOCC2)c2ccccc12	108	nt	98	95
OC(COc1cccc2cccnc12)Cn1c2ccccc2c2ccccc21 (stereo unspecified)	102	nt	111	56
CCOc1ccc(CCNC(=O)c2ccc(CS(=O)Cc3ccc(Cl)cc3)o2)cc1 (stereo unspecified)	102	nt	133	98
COc1ccc(-c2nnc3sc(CN4CCc5ccccc54)cn23)cc1	109&101	4	109	104
COc1ccc(C(CNC(=O)c2oc3cc(C)c(C)cc3c2C)N2CCCCC2)cc1 (stereo unspecified)	101	-12	114	85
CNC(=O)NC(=O)C(Sc1nnc(SC)s1)c1ccccc1 (stereo unspecified)	nt	0	98	91
Cc1cccc(NC(=O)c2c(NC(=O)c3cccs3)sc3c2CCC(C)C3)c1 (stereo unspecified)	99	-3	99	92
O=C(c1ccc2c(c1)OCCO2)C1CCCCC1	100	-11	128	82
CSc1nc(N)nn1CCC#N	103	-30	95	91
COc1ccc(NC(=O)N2CCN(S(=O)(=O)c3ccc4c(ccn4C)c3)CC2)cc1OC	104	nt	110	102
CC1(O)COc2ccccc2O1 (stereo unspecified)	101	14	102	103
N#C/C(=C\Nc1ccc(OC(F)(F)F)cc1)C(=O)c1ccco1	104	-17	107	94

Part of the list above in another layout:
SMILES | GIV Gai3 FP | HCMV NEC inh | Sa growth 42C | Sa growth 42C second temp
COc1ccc(CN(C)S(=O)(=O)c2cn(C)c(=O)n(C)c2=O)cc1OC | nt | -33 | 86 | 82
CC(=O)N(C(C)=O)c1ccccc1-c1ccccc1 | 105 | -28 | 96 | 73
CCC1CCCCN1C(=O)COC(=O)c1cncc(Br)c1 (stereo unspecified) | nt | -18 | 105 | 87
Cc1oc(-c2ccccc2Cl)nc1CSCC(=O)NC1CCCC1 | 105 | nt | 89 | 84
O=C(c1nc(Cn2cnc3ccccc3c2=O)no1)N1CCN(Cc2ccc3c(c2)OCO3)CC1 | 102 | -20 | nt | nt
COc1cccc(NC(=O)N2CCC(C(=O)O)CC2)c1 | 99 | -19 | 79 | 81
O=C(NCc1ccc(Cl)cc1)c1cnc(N2CCOCC2)c2ccccc12 | 108 | nt | 98 | 95
OC(COc1cccc2cccnc12)Cn1c2ccccc2c2ccccc21 (stereo unspecified) | 102 | nt | 111 | 56
CCOc1ccc(CCNC(=O)c2ccc(CS(=O)Cc3ccc(Cl)cc3)o2)cc1 (stereo unspecified) | 102 | nt | 133 | 98
COc1ccc(-c2nnc3sc(CN4CCc5ccccc54)cn23)cc1 | 109&101 | 4 | 109 | 104
COc1ccc(C(CNC(=O)c2oc3cc(C)c(C)cc3c2C)N2CCCCC2)cc1 (stereo unspecified) | 101 | -12 | 114 | 85
CNC(=O)NC(=O)C(Sc1nnc(SC)s1)c1ccccc1 (stereo unspecified) | nt | 0 | 98 | 91
Cc1cccc(NC(=O)c2c(NC(=O)c3cccs3)sc3c2CCC(C)C3)c1 (stereo unspecified) | 99 | -3 | 99 | 92
